# Source: PubChem
# miR-21 reporter = qHTS Assay for Modulators of miRNAs and/orActivators of miR-21; Potency, µM (series often up to 38.3 µM), without a hit: at the highest dose reporter change, positive = more light; 340,000 tested, under 10 active; HeLa miR-21 FLuc reporter, luciferase, 48 h; AID 2288, 2010; active = well fitted rising curve with a large enough effect; inconclusive = small, poorly fitted or top-dose-only effect; inactive = no such curve, though single readings can be large or run the other way;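 further: % of control where 0% means no effect; miR-21 action dims this reporter so a rising signal means less miR-21 action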
#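 HeLa cells endogenously expressing miR-21, stably carrying CMV-driven firefly luciferase with a downstream miR-21 binding site, 2000 cells/well. Titrations up to approximately 40 uM, 48 hours; luciferase luminescence read.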
# Starred values were filed as active, the others as inactive; ? = inconclusive. A portion of the library. The share of hits here may be higher or lower than overall.
SMILES,miR-21 reporter
COc1ccc2c(c1)c1c(c(=O)n(-c3ccc(OC)c(OC)c3)c(=O)n1Cc1ccc(F)cc1)n2C,-2%
Cc1c(C(=O)Nc2cccc(C(F)(F)F)c2)sc2nc3n(c(=O)c12)CCC3,-2%
Cc1nn(-c2ccc(N3CCCC3)nn2)c(C)c1CCC(=O)N1CCN(c2ccc(F)cc2)CC1,2%
CCOc1ccc(NC(=O)c2oc3ccccc3c2NC(=O)Cc2cccc(C)c2)cc1,-5%
Cn1c(SCC(=O)N2CCCc3ccccc32)ncc(C(=O)Nc2ccc(Cl)cc2)c1=O,-4%
O=C(CN1N=C(c2ccc(Cl)cc2)CCC1=O)NCc1ccc(F)cc1,0%
CCCCCC(=O)N(c1ccc(OCC)cc1)S(=O)(=O)c1ccc2c(c1)n(C)c(=O)n2C,-5%
O=C(Nc1cc(-c2nc3cc(Cl)ccc3o2)ccc1Cl)c1cc2ccccc2o1,-25%
CCCCOc1cccc(C(=O)N(Cc2ccc(Br)o2)C2CCS(=O)(=O)C2)c1 (stereo unspecified),-5%
Cc1cc(C)c(Nc2nn3c(=O)c4cc5c(cc4nc3s2)OCO5)c(C)c1,-13%
CCC(Cn1nnc2ccccc2c1=O)NC(=O)Nc1cccc(C)c1C (stereo unspecified),5%
COc1ccc(CCNC(=O)C2CCN(c3nc4ccccc4nc3C(F)(F)F)CC2)cc1OC,25%

# 3 entries from above, arranged by formula weight, ascending.
SMILES,miR-21 reporter
CCC(Cn1nnc2ccccc2c1=O)NC(=O)Nc1cccc(C)c1C (stereo unspecified),5%
Cn1c(SCC(=O)N2CCCc3ccccc32)ncc(C(=O)Nc2ccc(Cl)cc2)c1=O,-4%
COc1ccc(CCNC(=O)C2CCN(c3nc4ccccc4nc3C(F)(F)F)CC2)cc1OC,25%

# Going on with the list:
SMILES,miR-21 reporter
CCOc1ccc(C(=O)Nc2ccc(C(=O)OCc3cc(=O)n4nc(CC)sc4n3)cc2)cc1,-1%
O=C(Cc1ccccc1)N(Cc1cccnc1)c1nc2c(F)cc(F)cc2s1,12%
Cc1ccc(Cl)cc1N1CCN(C(=O)c2cc3c(=O)n(C)c4ccccc4c3s2)CC1,-1%
Cc1nn(-c2ccccc2)c2sc(C(=O)Nc3ccc(Br)cc3)cc12,2%
CCN1CCN(C(c2ccc(F)cc2)c2sc3nc(-c4ccco4)nn3c2O)CC1 (stereo unspecified),-9%
CCCC(=O)Nc1ccc2nc(SCC(=O)N3CCOCC3)sc2c1,-18%
CCc1ccc(OCC(=O)Nc2ccc(Cl)c(-c3nc4ncccc4o3)c2)cc1,-2%
CNc1nc(Oc2ccc(=O)[nH]n2)nc(N2CCOCC2)n1,-4%
O=C(NCCCc1ccccc1)c1nn(-c2ccccc2F)nc1CO,25%
CCc1ccc(NC(=O)C2CCN(c3ccc(Sc4ccc(C)cc4)nn3)CC2)cc1,-2%
COc1ccc(CNC(=O)c2c(O)nc3c(C)cccn3c2=O)cc1,-9%
CCCc1nn2c(C)c(-c3ccccc3)nc2s1,-14%
Cc1ccc(-c2nc(NC(=O)CSc3nc(C)nc4sc5c(c34)CCCC5)ns2)cc1,-1%
C=CCC(CC=C)(CNC(=O)C(=O)Nc1ccc(Br)cc1)c1ccc(OC)c(OC)c1,2%
O=C(Nc1c(C(=O)N2CCN(c3ccccc3F)CC2)oc2ccccc12)c1ccco1,22%
CCCN(CCC)CCCNC(=O)C1CCCN(S(=O)(=O)c2cccc3nsnc23)C1 (stereo unspecified),-4%
CCOc1ccc(-c2cccc(NS(=O)(=O)c3ccc(Cl)s3)c2)nn1,-12%
Cc1ccc(NC(=O)CSc2nnc(-c3ccc([N+](=O)[O-])cc3)o2)c(C)c1,-7%
COc1ccccc1Nc1sc(C(=O)c2ccc3c(c2)OCO3)c(N)c1S(=O)(=O)c1ccccc1,-10%
Cc1ccccc1CN1CCCN(CC(=O)Nc2ccc3c(c2)OCCO3)S1(=O)=O,7%
COc1cc([N+](=O)[O-])ccc1NC(=O)c1nc2ccccc2n(C)c1=O,-1%
CCN(CC)C(=O)Cn1cc(SCC(=O)Nc2cc(OC)ccc2OC)c2ccccc21,19%
COC(=O)Cc1c(C)c2ccc3c(c2oc1=O)CN(Cc1ccc(Cl)cc1)CO3,6%
COc1ccc(CNC(=O)C(=O)NCC(c2cccs2)S(=O)(=O)c2ccc(C)cc2)cc1 (stereo unspecified),14%

# Reprinted from the part before: 4 compounds, followed by the next part.
SMILES,miR-21 reporter
COc1cc([N+](=O)[O-])ccc1NC(=O)c1nc2ccccc2n(C)c1=O,-1%
CCN(CC)C(=O)Cn1cc(SCC(=O)Nc2cc(OC)ccc2OC)c2ccccc21,19%
COC(=O)Cc1c(C)c2ccc3c(c2oc1=O)CN(Cc1ccc(Cl)cc1)CO3,6%
COc1ccc(CNC(=O)C(=O)NCC(c2cccs2)S(=O)(=O)c2ccc(C)cc2)cc1 (stereo unspecified),14%
O=S(=O)(c1ccc2nc(NCc3ccccc3Cl)ccc2c1)N1CCCCC1,11%
COc1cc(NC(=O)c2ccc(-c3nc(COc4ccccc4)c(C)o3)cc2)cc(OC)c1,25%
O=C(NCc1ccccc1)C1CCC(CNS(=O)(=O)c2ccc(Br)s2)CC1 (stereo unspecified),-2%
O=C(Cn1c(-c2cccs2)cc2ccccc21)NCCCN1CCN(c2ccccc2F)CC1,?
O=C(CN1C(=O)C2(SCC(=O)N2c2ccc(Cl)cc2)c2ccccc21)NCCc1ccccc1 (stereo unspecified),11%
COc1cccc(C(=O)n2nc(-c3ccco3)nc2NCc2cccs2)c1,-29%
CC(C)C(NS(=O)(=O)c1ccc2c(c1)oc(=O)n2C)C(=O)NCCc1ccc(Cl)cc1 (stereo unspecified),1%
CC(=O)N1CCc2c(sc3c2c(=O)n(-c2ccccc2Cl)c(=O)n3Cc2cccc(C)c2)C1,9%
COc1ccc(CCNC(=O)c2c(C)oc3ncnc(N4CCOCC4)c23)c(OC)c1,-1%
O=C(CN1C(=O)COc2ccc(Cl)cc21)Nc1cccc(C(=O)O)c1,-1%
O=C(Cn1cc(S(=O)(=O)c2ccccc2)c(=O)c2cc3c(cc21)OCO3)Nc1ccc(Cl)cc1,9%
COc1ccc(-n2nc3cc(C)c(NC(=O)COc4cccc(C)c4)cc3n2)cc1,-3%
O=C(CCS(=O)(=O)c1nc(-c2ccc3c(c2)OCO3)cc(C(F)(F)F)n1)Nc1ccc(F)c(Cl)c1,?
CCCCCOc1ccc(C(=O)N(Cc2ccccc2)C2CCS(=O)(=O)C2)cc1 (stereo unspecified),3%
CC(=O)c1ccc(N2CCN(C(=O)CS(=O)(=O)c3cccc4nsnc34)CC2)cc1,-3%
CCOC(=O)C1CCCN(c2nc3c(S(=O)(=O)c4ccc(Br)cc4)nnn3c3ccsc23)C1 (stereo unspecified),-3%
CCOC(=O)c1c(C)[nH]c(CCC(=O)NCCCN2CCN(c3ccccc3F)CC2)c1C,7%
Cc1cc(N2CCC(C)CC2)nc2ccc(NC(=O)/C=C/c3cccc(Cl)c3)cc12,10%
Cc1ccccc1CS(=O)(=O)CC1Nc2ccc(C(=O)NCc3ccc(Cl)cc3)cc2NC1=O (stereo unspecified),-2%
CC(C)NC(=O)CN1C(=O)COc2ccc(S(=O)(=O)N3CCCCCC3)cc21,8%
COc1ccc(Nc2nnc(-c3ccc(C)c(S(=O)(=O)N4CCN(C)CC4)c3)c3ccccc23)cc1,-3%
Cc1ccccc1NC(=O)C(Cc1ccccc1)N1Cc2ccccc2C1=O (stereo unspecified),11%
CCc1ccccc1NC(=O)CC(C)S(=O)(=O)c1ccc2c(c1)NC(=O)CO2 (stereo unspecified),1%
Cc1cccc(NC(=O)CSc2nnc3c4ccccc4n(C)c3n2)c1,-2%
CCc1ccccc1NC(=O)Cn1cc(C(=O)c2ccncc2)c(=O)c2cc(C)ccc21,-2%
Cc1cc(C)c(NC(=O)Cn2nnc(-c3ccccc3)n2)c(C)c1,-3%
CCC(NC(=S)NC1CCCCC1)c1ccc(C(C)C)cc1 (stereo unspecified),23%
COc1ccc(C(=O)Nc2ccc(OCc3cc(=O)n4ccsc4n3)cc2)cc1OC,3%
Cc1ccc(-n2ncc(C(=O)NCCc3ccsc3)c2C2CCN(C(=O)OC(C)(C)C)CC2)c(C)c1,5%
COC(=O)c1c(NC(=O)c2ccc(Cl)c(Cl)c2)sc2c1CCCC2,-3%
Cc1ccc(CSc2nc(-c3ccc(C(C)(C)C)cc3)nc3cc(=O)[nH]n23)cc1,6%
Cc1ccc(CNC(=O)c2ccc3nc(SCc4ccc(F)cc4)[nH]c3c2)cc1,23%
Cc1cc(Cl)ccc1NC(=O)CN1C(=O)COc2ccc(S(=O)(=O)Nc3ccccc3)cc21,8%
Cc1ccc(-n2c(=O)c3c(c4cc(C)ccc4n3C)n(CC(=O)NCC3CCCO3)c2=O)cc1 (stereo unspecified),0%
Cc1nnc(N2CCC(C(=O)NCCC(C)C)CC2)c2nn(-c3ccc(Cl)cc3)c(C)c12,-5%
CCOC(=O)CNC(=O)c1cc2c(=O)n(CC)c3ccccc3c2s1,3%
CCc1cccc(-n2c(=O)c3cccnc3n2CC(=O)NCc2ccc(C)cc2)c1,-2%
COC(=O)CN1C(=O)CSc2ccc(S(=O)(=O)Nc3ccc(F)c(Cl)c3)cc21,-2%
CCCSCCCNC(=O)Cn1c(-c2cccs2)cc2ccccc21,14%
O=C(COc1ccc2ccccc2c1)NC1CC(=O)N(c2ccc(F)cc2)C1 (stereo unspecified),0%
CC1CCCCN1C(=O)c1cc(-c2ccc(Br)cc2)on1 (stereo unspecified),-54%
Cc1ccc(-c2nc(CNC(=O)NC3CCCCC3)c(C)o2)cc1,0%
COc1ccc(NC(=O)c2ccc(CN3C(=O)CCn4nc(C)cc43)cc2)c(OC)c1,0%
CCN(Cc1ccccc1)C(=O)c1cc(-c2ccccc2)n[nH]1,-58%
CCOc1ccc(-c2nc(SCC(=O)NC3CCCC3)c(-c3ccccc3)[nH]2)cc1OC,17%
Cc1csc2nc(COc3ccc(NC(=O)COc4ccc(F)cc4)cc3)cc(=O)n12,4%
Cn1c(=O)n(C)c2cc(N3CCOCC3)c(NS(=O)(=O)c3ccc(F)cc3)cc21,-22%
COc1cc(C(=O)OCc2cc(=O)n3nc(C(C)C)sc3n2)cc(OC)c1OC,-5%
O=C1NCCN(Cc2ccc(F)cc2)C1=O,-1%
CCCCc1nnc(SCc2cc(=O)c3cc(F)ccc3[nH]2)n1C,5%
Cc1ccc(Cn2c(=O)n(CCc3ccccc3)c(=O)c3c(C)c(C)sc32)cc1,-1%
CCCOC(=O)c1c(NC(=O)C2c3ccccc3Oc3ccccc32)sc2c1CCCC2,-6%
Cc1ccc(C(=O)c2oc3ccccc3c2NC(=O)C(C)Oc2ccccc2Cl)cc1 (stereo unspecified),-2%
Cc1cccc(OCC(=O)Nc2cccc3cccnc23)c1C,-2%
COC(=O)C1CCN(S(=O)(=O)c2cc3c4c(c2)C(C)C(=O)N4CCC3)CC1 (stereo unspecified),-6%
CCCOc1ccc(Oc2nc(NCC(C)C)nc(N3CCOCC3)n2)nn1,-2%
Cc1ccc(NC(=O)c2cc(S(=O)(=O)N3CCCc4ccccc43)ccc2F)cc1F,?
COc1ccc(CNC(=O)c2cccn2-c2nnc(N3CCCC3)s2)c(OC)c1,8%
Cc1nn2c(=O)cc(COC(=O)c3ccc(NC(=O)COc4ccc(Cl)cc4)cc3)nc2s1,-3%
O=C(c1ccc2c(c1)OCCO2)N(Cc1cccnc1)c1nc2c(Cl)cccc2s1,-6%

# A stretch taken from the entries so far, as a working copy:
SMILES,miR-21 reporter
O=C1NCCN(Cc2ccc(F)cc2)C1=O,-1%
CCCCc1nnc(SCc2cc(=O)c3cc(F)ccc3[nH]2)n1C,5%
Cc1ccc(Cn2c(=O)n(CCc3ccccc3)c(=O)c3c(C)c(C)sc32)cc1,-1%

# (continued)
SMILES,miR-21 reporter
COCCCNC(=O)CCCN1C(=O)CCn2nc(-c3cccn3C)cc21,-3%
Cc1ccc2c(c1)-c1c(cnc3cc(-c4ccccc4)nn13)CO2,-18%
Cc1nn(CC(=O)NC2CC2)c(=O)c2cc3cc(F)ccc3n12,-1%
CCCCOc1ccccc1C(=O)N(Cc1sccc1C)C1CCS(=O)(=O)C1 (stereo unspecified),0%
Cc1cccc(CNC(=O)c2cnc3sc(N4CCCCC4)nn3c2=O)c1,-1%
CCN(CC)CCCNC(=O)Cn1nc(C)n2c(cc3sccc32)c1=O,0%
COc1cc(NC(=O)CN2C(=O)CCc3cc(Br)ccc32)cc(OC)c1OC,1%
COc1ccccc1C(=O)Nc1cccc(C(=O)OCc2cc(=O)n3c4c(sc3n2)CCCC4)c1,5%
Cc1cccc(C(=O)NC(=O)Nc2ccc(-c3cc(C(F)(F)F)nn3-c3ccccc3)cc2)c1,0%
O=C(NCc1ccc(Cl)cc1)C1CCCN(C(=O)c2cnn(-c3ccc(F)cc3)c2-n2cccc2)C1 (stereo unspecified),16%
Cc1ccc(-n2ncc(C(=O)N3CCN(c4ccccn4)CC3)c2C2CCN(C(=O)OC(C)(C)C)CC2)cc1C,-1%
COc1ccc(-c2nc(SCC(=O)Nc3ccc4c(c3)OCO4)c(-c3ccccc3)[nH]2)cc1,4%
CC(=O)N1CCCC1c1nc2ccccc2n1Cc1cccc(C)c1 (stereo unspecified),-2%
Cc1ccc(N2CC(NC(=O)c3ccc(S(=O)(=O)N4CCCCC4)cc3)CC2=O)cc1 (stereo unspecified),1%
CCCOc1ccc(C2c3c(-c4c(C)cc(C)cc4O)n[nH]c3C(=O)N2CCO)cc1 (stereo unspecified),-25%
